Mtb bLac sens = beta-lactam sensitization of Mtb H37Rv, H37Rv; hit rate 0.27% among 330,000; AID 434955, 2010; M. tuberculosis H37Rv growth with meropenem, percent inhibition; hits of this screen are not shown here; inhibition, % at 25 µM;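 active = about 74% or more and at least 40 points above the plate without the antibiotic, then above 30% in a dose series; inconclusive = first-round hits that could not be retested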;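 also: growth measured after seven days incubation then overnight dye step; 0% = bacteria only wells and 100% = bacteria with antibiotic; twin plates without the antibiotic show which effects depend on it; some results filed as inactive read as strong as hits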
RecA intein inh = Mtb RecA intein splicing inhibitors, primary screen, biochemical, fluorescence, HTS; Protein RecA (Mycobacterium tuberculosis (strain ATCC 25618 / H37Rv)), P9WHJ3; cell-free RecA intein splicing; inhibition, %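 (about 9 µM by stock and volumes)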; hit rate 0.75% among 290,000; AID 2221, 2009; in the data active = inhibition above about 30%; inconclusive = no clear call, values can overlap the other calls;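 also: 0% = vehicle wells and 100% = reference inhibitor control wells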
Target sequence (P9WHJ3 whole entry, looked up): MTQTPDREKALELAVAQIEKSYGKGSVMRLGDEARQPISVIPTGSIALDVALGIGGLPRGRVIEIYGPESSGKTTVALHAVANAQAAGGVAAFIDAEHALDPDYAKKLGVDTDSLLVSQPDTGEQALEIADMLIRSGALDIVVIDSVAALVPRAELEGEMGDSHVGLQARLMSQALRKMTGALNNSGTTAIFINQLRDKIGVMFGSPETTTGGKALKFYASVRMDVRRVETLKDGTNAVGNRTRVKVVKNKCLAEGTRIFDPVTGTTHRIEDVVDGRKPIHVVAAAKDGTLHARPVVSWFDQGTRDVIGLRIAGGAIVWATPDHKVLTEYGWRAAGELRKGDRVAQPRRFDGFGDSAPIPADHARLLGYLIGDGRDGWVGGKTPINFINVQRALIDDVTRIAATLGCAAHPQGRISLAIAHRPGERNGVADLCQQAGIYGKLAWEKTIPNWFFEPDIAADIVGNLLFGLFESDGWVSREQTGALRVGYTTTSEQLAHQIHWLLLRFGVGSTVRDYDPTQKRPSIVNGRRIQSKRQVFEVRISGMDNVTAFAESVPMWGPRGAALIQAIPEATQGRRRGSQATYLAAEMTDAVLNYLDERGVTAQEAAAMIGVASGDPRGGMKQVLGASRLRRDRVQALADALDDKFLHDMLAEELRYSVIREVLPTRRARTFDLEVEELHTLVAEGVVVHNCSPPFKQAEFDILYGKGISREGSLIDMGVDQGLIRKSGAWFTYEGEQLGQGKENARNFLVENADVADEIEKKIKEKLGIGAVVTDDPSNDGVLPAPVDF
Mtb growth = M. tuberculosis H37Rv growth inhibitors, H37Rv strain (AID 1626); M. tuberculosis H37Rv growth inhibition; higher % means a stronger effect; one-dose inhibition, % at 10 µM; IC50 in µM for titrated hits; hit rate 0.95% among 220,000;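 active = confirmed in a dose series; inconclusive = inhibition above 80% but not taken into the dose series; inactive = below 80% or under 30% at every dose of the series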;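 also: bacteria incubated seven days before Alamar blue readout; 0% = bacteria only wells and 100% = bacteria with antibiotic wells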
YopH inh = YopH tyrosine phosphatase inhibitors, primary screen, biochemical, fluorescence Ex485/Em525; YopH tyrosine phosphatase [Yersinia enterocolitica]; inhibition, %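 (about 10 µM by stock and volumes)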; hit rate 0.16% among 140,000;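 active = inhibition of 50% or more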;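 also: controls were vehicle for no effect and minimum signal wells for full effect; inactives centre near -20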
Arbovirus anti = antivirals against arbovirus infection, primary screen, cell-based, full library, 10K replicate subset. arbovirus infection cell-based antiviral screen. inhibition, % at 10 µM. hit rate 0.37% among 200,000. AID 1251, 2008;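 active = inhibition from about 30%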;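 also: bluetongue infection of BSR cells; cell survival read as ATP light after 72 h; 0% = infected wells without compound and 100% = uninfected wells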
Arbovirus anti repeat = second read-out of Arbovirus anti, no call of its own (marks repeat the call); inhibition, %; measured here: 10K subset replicate screen; many hits read low in the repeat;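 first of two repeat runs on a subset; 0% = infected and 100% = uninfected wells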
Starred values were filed as active, the others as inactive; u = inconclusive; x = not tested or not shown. Not all compounds are listed, so the mix of outcomes need not match the whole.

SMILES | Mtb bLac sens | RecA intein inh | Mtb growth | YopH inh | Arbovirus anti | others
CCCCn1c(N)c(-c2nc3ccccc3s2)c2c([N+](=O)[O-])nn(CC)c(=O)c21 | u | -1.0 | 1% | -5 | -7
CC(/C=C/c1ccco1)=N\NC(=O)c1cc(C)[nH]n1 | u | 2.2 | -12% | -32 | -6
COc1ccc(NC(=O)C23CC4CC(C2)CC(c2ccc(C)cc2)(C4)C3)cc1 | 5 | 0.1 | -3% | -40 | 12
Cc1cc(C)cc(N/C(N)=N/c2nc(C)cc(C)n2)c1 | -6 | 3.8 | -6% | -32 | -4
CN(Cc1ccon1)Cc1cn(C)nc1-c1ccc2c(c1)OCCO2 | 0 | -0.9 | -8% | x | -2
Cc1ccnc(N2CCCC(C(=O)Nc3cccc(C)c3C)C2)n1 (configuration not stated) | -4 | -12 | x | x | x
CC(C)C(=O)Nc1nnc(SCc2cccc(F)c2)s1 | 0 | 5.3 | 14% | x | 11
Cc1cc(C)n(CCNC(=O)CC2C(=O)NCCN2Cc2ccccc2C(F)(F)F)n1 (configuration not stated) | -9 | 3.3 | -1% | x | 3
CC(=O)Nc1nc(C)c(Oc2ccc(Cl)cc2Cl)c(=O)[nH]1 | -3 | -0.5 | -3% | -34 | -3
COc1ccc2c(c1)C(c1ccc(C)o1)=NNC(c1cccnc1)=N2 | -6 | 0.6 | 1% | x | -10
O=C(CSCc1cccc(Cl)c1)N/N=C/c1ccc(OCC(=O)N2CCCCC2)cc1 | 70 | 4.4 | -14% | 5 | -9
COc1cc(C(=O)OCc2ccc(C)cc2)cc(NC(=O)c2cccs2)c1OC | 5 | -10 | 0% | -26 | -9
CN(C)S(=O)(=O)c1ccc(NC=O)cc1 | -4 | -2.1 | 12% | x | 15
CC1(C)CC(=O)C2=C(C1)N(Cc1ccco1)C(=O)C2(NC(=O)c1cccnc1)C(F)(F)F (configuration not stated) | 5 | -2.2 | -1% | -29 | -3
CNC(=O)COC(=O)c1ccc(NC(=O)CC#N)cc1 | -3 | 0.8 | -3% | -16 | 1
CCOc1ccccc1NC(=O)/C(C#N)=C/c1cccnc1 | 5 | 2.6 | x | x | x
Cc1ccc(N2C(=O)CC(Sc3ncccc3C(=O)O)C2=O)cc1 (configuration not stated) | -2 | -1.6 | -1% | x | 12
C=CCOC(=O)C1=C(C)NC(=O)NC1c1cc2c(cc1Br)OCO2 (configuration not stated) | 2 | 3.5 | x | x | x
CCCOc1ccc(C(=O)CCC(=O)OCC(=O)Nc2ccc(OCC)cc2)cc1 | -4 | -1.1 | -2% | x | x
CC(C)=CCC/C(C)=C/C(N)=O | 2 | 0.9 | -10% | x | x
COc1ccc(OC)c(C(C)NC(=O)Nc2ccccc2)c1 (configuration not stated) | 1 | 1.3 | 8% | x | -2
O=C1OC/C(=C(/O)c2ccc(Cl)cc2)C1=O | 0 | 0.1 | x | x | x
O=C(CN1C(=O)NC2(CCCCCC2)C1=O)NCc1cccs1 | 1 | 1.7 | -5% | -20 | 14
O=C(c1ccc([N+](=O)[O-])cc1)N1CCC(n2nnc3cc(F)ccc32)CC1 | 0 | -3.2 | -7% | x | 4
Cc1ccc(OCc2nnc(SCC(=O)c3ccccc3)n2-c2ccccc2)cc1 | -1 | 20 | 3% | 31 | 9
Cc1cc(C)c(C(N)=O)c(Nc2ccc3c(c2)OCCO3)n1 | -18 | -0.9 | -9% | -2 | -5
CC(C)OCCCNC(=O)c1cc(S(=O)(=O)N2CCCCC2)c[nH]1 | 1 | -0.9 | x | x | x
COc1cccc(NC(=O)CN2CCN(C(=O)c3ccco3)CC2)c1 | -10 | -1.7 | x | x | x
CCn1c(CNC(=O)COC)nc2ccccc21 | 0 | -2.3 | -9% | 8 | 1 | Arbovirus anti repeat=1
CCOC(=O)c1cc2c(s1)-c1ccccc1CC2 | 7 | 10 | 4% | -32 | 4
COc1ccc(C(=O)NNC(=O)C(Cc2ccc(O)cc2)NC(=O)c2ccccc2NC(=O)c2ccc(OC)cc2)cc1 (configuration not stated) | -3 | 4.4 | -3% | -14 | -9
O=C(CCc1c[nH]c2ccccc12)NC1CC1 | -9 | -1.0 | 1% | -9 | -4
COCCN(Cc1cc2ccccc2[nH]c1=O)C(=O)c1ccccc1OC | 2 | 1.0 | -3% | -36 | 3
C/C=C(/C)C(=O)O[C@@H]1c2c(ccc3ccc(=O)oc23)O[C@@H]1C(C)(C)OC(=O)/C(C)=C\C | -20 | 4.4 | -5% | -36 | 3
O=S(=O)(c1ccc(-c2nnc(SCc3ccccc3)o2)cc1)N1CCCC1 | 9 | 0.4 | 4% | -49 | -5
Cc1ccc(C)c(CNS(=O)(=O)c2c(C)[nH]c(C)c2C(=O)N2CCCCC2)c1 | -2 | -0.8 | x | x | x

Pulled by compound from the entries so far, 4 records:
SMILES | Mtb bLac sens | RecA intein inh | Mtb growth | YopH inh | Arbovirus anti | others
O=S(=O)(c1ccc(-c2nnc(SCc3ccccc3)o2)cc1)N1CCCC1 | 9 | 0.4 | 4% | -49 | -5
C/C=C(/C)C(=O)O[C@@H]1c2c(ccc3ccc(=O)oc23)O[C@@H]1C(C)(C)OC(=O)/C(C)=C\C | -20 | 4.4 | -5% | -36 | 3
COCCN(Cc1cc2ccccc2[nH]c1=O)C(=O)c1ccccc1OC | 2 | 1.0 | -3% | -36 | 3
Cc1ccc(C)c(CNS(=O)(=O)c2c(C)[nH]c(C)c2C(=O)N2CCCCC2)c1 | -2 | -0.8 | x | x | x

Copied from the results shown for reference:
SMILES | Mtb bLac sens | RecA intein inh | Mtb growth | YopH inh | Arbovirus anti | others
CCOc1ccccc1NC(=O)/C(C#N)=C/c1cccnc1 | 5 | 2.6 | x | x | x
Cc1ccc(N2C(=O)CC(Sc3ncccc3C(=O)O)C2=O)cc1 (configuration not stated) | -2 | -1.6 | -1% | x | 12
C=CCOC(=O)C1=C(C)NC(=O)NC1c1cc2c(cc1Br)OCO2 (configuration not stated) | 2 | 3.5 | x | x | x
CCCOc1ccc(C(=O)CCC(=O)OCC(=O)Nc2ccc(OCC)cc2)cc1 | -4 | -1.1 | -2% | x | x

The list goes on:
SMILES | Mtb bLac sens | RecA intein inh | Mtb growth | YopH inh | Arbovirus anti | others
COc1cc(C(=O)N(Cc2cc3cc(C)ccc3[nH]c2=O)CC2CCCO2)cc(OC)c1OC (configuration not stated) | 24 | x | -8% | -33 | 2
CCOC(=O)C1CCN(C(=O)C2(NC(=O)NC3CCCCC3)CCCCC2)CC1 | 7 | 1.5 | 4% | x | -4
Cc1ccc(C)c(NC(=O)CSc2nnc(CNC(=O)c3cccs3)o2)c1 | -5 | 0.0 | 2% | x | 0
CCOC(=O)Cn1nc(/C=C/c2ccc(OC)cc2)ccc1=O | -2 | x | -3% | -42 | x
CCOC(=O)c1cc(-c2ccccc2)n[nH]1 | -6 | x | -7% | x | x
Cc1nc(NC(=O)/C=C/c2ccco2)sc1C | -1 | -0.4 | -5% | -12 | -14
C[C@@H]1CN(C(=O)c2nc3ccc(Cl)cn3c2CNCC[C@@H]2C[C@@H]3C=C[C@H]2C3)C[C@H](C)O1 | 0 | -0.7 | 5% | x | 2
Brc1ccccc1/C=N/Nc1nc2ccccc2o1 | -1 | -3.0 | x | x | x
Cc1ccc(OCc2nnc(SCc3cc(=O)[nH]c4ccccc34)o2)cc1 | 3 | 1.4 | -3% | -24 | -14
Cc1ccc(N2C(=O)N(C(C)C)C(C)(C)CC2(C)O)cc1 (configuration not stated) | -2 | -3.1 | 3% | x | x
Cc1ccc(/C=N/N(C)S(=O)(=O)c2ccc(C)cc2)cc1 | 8 | 3.5 | x | x | x
CCc1nnc(NC(=O)CSc2nnc(-c3cc4ccccc4cc3O)n2CC)s1 | -12 | -5.3 | -6% | -27 | 21
CCOC(=O)C1CCN(C(=O)c2cccnc2Oc2ccccc2)CC1 | -11 | 0.7 | 2% | x | x
CCCCCOCC(O)CCC(=O)NN (configuration not stated) | -3 | 1.4 | -8% | -33 | 2
Cc1ccc(C(=O)NC2CCN(S(=O)(=O)c3ccc(F)cc3)CC2)cc1 | 2 | -0.8 | x | x | x
Cc1csc(NC(=S)NC(=O)c2ccccc2)n1 | 11 | 0.9 | x | x | x
COc1cccc(CNC(=O)C2=Cc3cccc(OC)c3OC2)c1 | 3 | 4.4 | 4% | x | 2
Cc1cc(C)cc(-n2ncc3c2CCCC3NC(=O)CN2CCCC2=O)c1 (configuration not stated) | -1 | -1.8 | x | x | x
C=CCOc1ccc(/C=C2\SC(=S)N(C(C(=O)O)c3ccccc3)C2=O)cc1 (configuration not stated) | x | 29 | -5% | x | x
O=C(CN1CC(c2ccccc2)CC1=O)NCc1ccc(F)cc1 (configuration not stated) | 6 | -0.5 | x | -20 | 4 | Arbovirus anti repeat=6
C=CCc1cc(C=O)cc(OC)c1OCc1c(Cl)cccc1Cl | 19 | x | 5% | -23 | -15
Cc1ccc(N2C(N)=NC(N)=NC23CCCC3)c(C)c1 | 1 | 19 | -3% | -13 | 2
COCCn1c(-c2cccc([N+](=O)[O-])c2)nc2c1c(=O)[nH]c(=O)n2Cc1ccccc1 | 0 | -0.4 | 5% | -26 | 10
O=[N+]([O-])c1ccc(C2Nc3cccc4cccc(c34)N2)cc1 | -3 | 10 | -2% | -25 | -11
COc1cc(C(=O)Oc2ccccc2/C=N/NC(=O)c2ccc(C)c(Cl)c2)cc(OC)c1OC | x | -4.9 | 23% | -28 | -25
COc1ccc(NC(=O)CSc2nc3ccccc3c(=O)n2CCC(=O)N2CCCCC2)cc1 | 100 | 1.7 | u | -12 | 2
Cc1ccc(C)c(NC(=S)NC(NC(=O)Cc2ccccc2)C(Cl)(Cl)Cl)c1 (configuration not stated) | 3 | -1.7 | -3% | -8 | 1
CCc1ccc(-c2nc(NC(=S)NC(=O)c3cccs3)sc2C)cc1 | -4 | 2.2 | 2% | -15 | 10
CC(C)CN(CC(C)C)C(=O)Nc1cccc([N+](=O)[O-])c1 | -1 | 0.8 | -4% | x | -3
Cc1ccc(C(=O)NNC(=O)C(C)Oc2ccccc2F)cc1S(=O)(=O)N1CCOCC1 (configuration not stated) | 0 | -4.8 | x | x | x
Cc1ccc(N(C(=O)CCC(=O)Nc2ccccn2)C(C(=O)NC(C)C)c2ccc(F)cc2)cc1 (configuration not stated) | -1 | 3.0 | x | x | x
Cc1ccc(S(=O)(=O)NCCNc2ccc([N+](=O)[O-])cc2C(F)(F)F)cc1 | -10 | 6.5 | 0% | -20 | -2
COc1ccc(-c2nnc(SCC#N)o2)cc1 | u | -1.5 | -20% | 6 | 0
Cc1cc(C(=O)Cn2nc(C(=O)O)c3ccccc3c2=O)c(C)n1-c1ccccc1 | 1 | 7.2 | 2% | -37 | -9
O=c1c2ccccc2nc(CSc2nnnn2-c2ccccc2)n1-c1ccccc1Cl | -5 | -1.3 | x | -20 | -16
O=[N+]([O-])c1ccc(O)c(CN2CCCCCC2)c1 | -10 | 1.5 | x | x | x
Cc1cccc(-n2c(-c3csc(C)c3C)n[nH]c2=S)c1 | -2 | -1.0 | 5% | -13 | 3
COc1cccc(CNC(=O)CCC(=O)N2CC(C)Oc3ccccc32)c1OC (configuration not stated) | 2 | -0.4 | x | x | x
O=C(O)c1ccc(NC(=O)c2ccccc2NC(=O)c2cccc(F)c2)cc1 | 18 | -1.4 | x | x | x
O=C(Nc1cccc(Cl)c1N1CCCCC1)c1ccc2c(c1)OCCO2 | 11 | 3.5 | -2% | 10 | 1
Cc1c(Cl)cccc1-n1ccnc1SCC(=O)O | u | -0.7 | -3% | -8 | -5
Cc1ccc(-c2nnc(N3CCN(C(=O)c4ccco4)CC3)c3ccccc23)cc1 | 80 | 11 | 7.4µM* | -20 | 8
Cc1cc(C)cc(NC(=O)c2ccc(CNc3c(N4CCCC4)c(=O)c3=O)cc2)c1 | 11 | -0.2 | 2% | x | x
CCN(CC)S(=O)(=O)c1ccc2c(c1)N(CC(=O)NCc1ccccn1)C(=O)CO2 | 5 | 3.0 | 5% | x | x

Bioassay records (PubChem BioAssay)
